Source: PubChem BioAssay
Rango complex inh: inhibitors of Rango-importin beta complex formation | Q14974 | Rango CFP/YFP FRET sensor + importin beta, 45 min | Potency, µM (top dose mostly 92.2 µM), for the others: top-dose inhibition of complex formation | 0.031% of 340,000 active; active = rising FRET ratio curve, often small or poorly fitted; inconclusive = mostly compound fluorescence or quenching in the first reads; inactive = flat curves in all reads;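 further: potency means the concentration at half of the fitted maximal effect; 0% = DMSO wells and 100% = buffer wells lacking importin beta; nearly all actives have a fitted effect of over 15% in size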
Target sequence (Q14974 whole entry, looked up): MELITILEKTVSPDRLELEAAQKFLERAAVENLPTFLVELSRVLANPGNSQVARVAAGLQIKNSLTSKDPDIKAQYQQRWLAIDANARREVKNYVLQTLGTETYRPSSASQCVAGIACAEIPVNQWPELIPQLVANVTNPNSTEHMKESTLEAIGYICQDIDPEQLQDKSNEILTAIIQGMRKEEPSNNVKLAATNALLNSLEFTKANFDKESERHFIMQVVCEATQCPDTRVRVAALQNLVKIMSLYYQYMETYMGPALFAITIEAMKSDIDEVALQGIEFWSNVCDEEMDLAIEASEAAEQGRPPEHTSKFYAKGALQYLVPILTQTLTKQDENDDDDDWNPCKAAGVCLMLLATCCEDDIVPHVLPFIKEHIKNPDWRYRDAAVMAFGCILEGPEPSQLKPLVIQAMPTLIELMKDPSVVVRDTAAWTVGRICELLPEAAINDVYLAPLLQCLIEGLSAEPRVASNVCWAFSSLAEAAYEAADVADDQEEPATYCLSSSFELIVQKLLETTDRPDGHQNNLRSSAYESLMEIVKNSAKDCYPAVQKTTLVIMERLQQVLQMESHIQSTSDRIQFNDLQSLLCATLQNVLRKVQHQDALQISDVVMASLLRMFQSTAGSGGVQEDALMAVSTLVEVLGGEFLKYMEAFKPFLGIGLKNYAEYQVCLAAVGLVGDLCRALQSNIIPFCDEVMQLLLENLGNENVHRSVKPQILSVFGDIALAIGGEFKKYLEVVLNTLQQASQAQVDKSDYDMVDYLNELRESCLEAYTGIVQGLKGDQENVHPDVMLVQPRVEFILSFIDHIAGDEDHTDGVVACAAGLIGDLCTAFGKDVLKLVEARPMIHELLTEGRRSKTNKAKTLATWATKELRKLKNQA
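FRET biosensor (snurportin 1 IBB flanked by EYFP and cerulean), 50 nM, with compound 5 min, then 0.125 microM importin beta in PBS, 1 mM DTT, 0.02% Tween-20, 0.1% BSA. CFP/YFP ratio read after 45 min at room temperature; pre-read flags interference.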
miR-21 reporter: miR-21 reporter, rising signal. HeLa miR-21 FLuc reporter, luciferase, 48 h. Potency, µM (series often up to 38.3 µM), inactives show top-dose reporter change, positive = more light. 340,000 tested, under 10 active; active = well fitted rising curve with a large enough effect; inconclusive = small, poorly fitted or top-dose-only effect; inactive = no such curve, though single readings can be large or run the other way;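 further: % of control where 0% means no effect; miR-21 action dims this reporter so a rising signal means less miR-21 action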
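HeLa cells endogenously expressing miR-21, stably carrying CMV-driven firefly luciferase with a downstream miR-21 binding site, 2000 cells/well. Titrations up to approximately 40 uM, 48 hours; luciferase luminescence read.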
GLA inh pH 4.5: blocks human alpha-galactosidase A at pH 4.5 | P06280 | 230,000 tested, under 10 active | purified enzyme, 4-MU-alpha-Gal fluorescence, pH 4.5 | activity change, negative = inhibition, % at 105 µM | AID 1467; inconclusive = small, poorly fitted or top-dose-only inhibition, or a rising curve; inactive = flat fitted curve, though single readings scatter; no compound was filed as active;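 further: 0% = full activity with enzyme and -100% = basal without enzyme; dose as in the result columns while the protocol names 77 µM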
Rango dissoc inh: inhibition of RanGTP-driven Rango-importin beta dissociation | Biochemical FRET Rango-importin beta, RanGTP-induced dissociation | Potency, µM (top dose mostly 46.1 µM), without a hit: top-dose activity change, negative = inhibition | 0.071% of 340,000 active | AID 540253; active means falling FRET ratio curve, often poorly fitted, with flat reads before Ran was added; inconclusive means other falling curves, or compound fluorescence or quenching; inactive means flat or rising ratio curve;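 further: potency means the concentration at half of the fitted maximal effect; % of control where 0% means no effect; nearly all actives have a fitted effect of over 45% in size; -100% = wells without RanGTP and RCC1; the record marks most hits as doubtful in a second field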
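Compounds sat 5 min at room temperature with 0.1 uM Rango biosensor plus 0.25 uM importin beta, then FRET pre-read. RanGTP-RCC1 (0.6 uM Ran, 2mM GTP, 0.2 uM RCC1) added for 45 min, and the CFP/YFP post-read measured blocked complex dissociation.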
Starred values were filed as active, the others as inactive; ? = inconclusive; . = no result given; & = joins results of further samples; [ ] = another dose, or the depositor's remark.

Labels used below: A = Rango complex inh; B = miR-21 reporter; C = GLA inh pH 4.5; D = Rango dissoc inh
O=C(c1ccc2nc(Cc3ccccc3F)oc2c1)N1CCCC1
  A = 2.5%	B = -58%	C = .	D = -15%

CCOC(=O)N1CCc2c(sc3c2c(=O)n(-c2ccc(CC)cc2)c(=O)n3CC(=O)NCC2CCCO2)C1 (stereo not given)
  A = -0.1%	B = -1%	C = .	D = -1%

COCCNC(=O)C(c1ccc(Cl)cc1)N(Cc1ccco1)C(=O)CCC(=O)Nc1ccccn1 (stereo not given)
  A = ?	B = 4%	C = .	D = -11%

COc1ccc(C(=O)O/N=C2\CCS(=O)(=O)c3sccc32)cc1
  A = -5.1%	B = 0%	C = -5	D = 3%

CN(CC(=O)Nc1ccccc1Cl)C(=O)COC(=O)c1ccccc1[N+](=O)[O-]
  A = 3.0%	B = .	C = .	D = 6%

CNc1nc(OC)nc(N(C#N)CN2C(=O)c3ccccc3S2(=O)=O)n1
  A = 0.6%	B = 3%	C = 5	D = 4%

CCOC(=O)c1cnc2c(-c3ccc(Cl)cc3)c(C)nn2c1N
  A = -0.9%	B = -8%	C = 6	D = -30%

Nc1cc(=O)[nH]c(SCC(=O)Nc2ccc(N3CCCCC3)cc2)n1
  A = 0.1%	B = .	C = .	D = -3%

Cc1cc(OCC(F)(F)C(F)(F)C(F)(F)C(F)F)nc(N)n1
  A = -0.8%	B = -17%	C = 0	D = 13%

O=C(O)COc1ccc(C=C2SC(=S)N(c3ccccc3)C2=O)cc1
  A = 0.4%	B = .	C = .	D = -3%

Clc1ccc(CN2CCSCC2)cc1Cl
  A = 1.2%	B = 1%	C = .	D = -1%

CCC(C)NC(=O)C1CCN(S(=O)(=O)c2ccc(Br)s2)CC1 (stereo not given)
  A = -2.6%	B = -6%	C = 4	D = -2%

COc1ccc(C2C(C(=O)O)CC(=O)N2c2ccc(OC)cc2)cc1 (stereo not given)
  A = 0.0%	B = 0%	C = 2	D = -3%

COc1ccc(-c2noc(N3CCC(C(=O)Nc4cc(OC)ccc4OC)CC3)n2)cc1
  A = 0.3%	B = 15%	C = .	D = 27%

COc1cccc(C(=O)Oc2c(Br)cc(Br)cc2/C=N/NC(=O)c2cc(C)[nH]n2)c1
  A = ?	B = 20%	C = 4	D = 18µM*

Cc1ccnc(NC(=S)NC(=O)c2cncc(Br)c2)c1
  A = -1.7%	B = -23%	C = -6	D = -8%

CC1CCCN(C(=O)COC(=O)CSc2ccc(C(N)=O)cc2[N+](=O)[O-])C1 (stereo not given)
  A = -1.0%	B = .	C = .	D = -4%

CN1CCN(C2=C(NS(=O)(=O)c3ccccc3)C(=O)c3ccccc3C2=O)CC1
  A = -4.6%	B = 30%	C = .	D = -2%

O=C(c1ccc(S(=O)(=O)N2CCCCC2)cc1)N1CCN(Cc2ccc3c(c2)OCO3)CC1
  A = -0.1%	B = 13%	C = 4	D = 13%

CC(C)N(C(=O)Cn1c(SCC(=O)NCc2ccc3c(c2)OCO3)nc2ccccc21)C(C)C
  A = 1.5%	B = -7%	C = 0	D = -1%

CCOC(=O)c1c(-c2ccc(OC)cc2)csc1/N=C/N(C)C
  A = 0.5%	B = -23%	C = -6	D = 11%

COc1ccc(C(CNC(=O)COc2cc(C)c(Cl)c(C)c2)N2CCCCC2)cc1 (stereo not given)
  A = 1.5%	B = -2%&24%	C = .	D = 14%

CCC(CC)CN1C(N(C)C)=NC[C@@H]1CC(C)C
  A = 2.1%	B = .	C = .	D = 27%

CCNC(=O)NC(=O)C(C)OC(=O)c1cccn1C (stereo not given)
  A = 2.8%	B = 3%	C = -15	D = 1%

Cc1cccc(N2CCN(C(=O)c3ccccc3SCC(=O)N3CCCC3)CC2)c1C
  A = 4.8%	B = .	C = .	D = 13%

COc1ccc(N2CCN(C(=O)CSc3ccc([N+](=O)[O-])cc3)CC2)cc1
  A = 1.8%	B = -1%	C = -15	D = -7%

COCCN(C)C(=O)CCc1nnc(Cc2ccc(-c3ccccc3)cc2)o1
  A = -1.4%	B = -6%	C = 2	D = -3%

CCC(=O)N(Cc1ccc2c(c1)OCO2)Cc1cc2cc(OC)ccc2[nH]c1=O
  A = -0.5%	B = -4%	C = -2	D = 10%

NC(=O)c1ccccc1NC(=O)CSc1nc2c(c(=O)[nH]1)CCCC2
  A = -0.5%	B = 13%	C = .	D = 3%

COc1ccc(C(=O)CSc2ccc(-c3ccc(C)cc3)nn2)cc1
  A = -0.8%	B = -45%	C = -5	D = 1%

Cn1c(=O)c2c(ncn2CCOc2ccc(F)cc2)n(C)c1=O
  A = -4.3%	B = 1%	C = .	D = 1%

COc1ccc(NC(=O)Nc2cccc3c2O[C@H](CN(C)C(=O)Nc2ccc(OC)cc2)[C@@H](C)CN([C@H](C)CO)C3=O)cc1
  A = 3.2%	B = .	C = .	D = -17%

CCCSc1ccc([C@@H]2[C@H]3C(=O)N(C)C(=O)[C@H]3[C@]3(C(=O)OC)CCCN23)cc1OC
  A = -1.4%	B = .	C = .	D = 15%

CNC(=O)c1nnn(Cc2ccccc2)c1NC(C)=O
  A = -2.2%	B = -1%	C = 12	D = -13%

O=C(NCCCl)Nc1cc([N+](=O)[O-])ccc1Cl
  A = 1.1%	B = 0%	C = 4	D = 13%

CCN1CCN(C(=O)c2cccc(OC3CCN(S(=O)(=O)N(C)C)CC3)c2)CC1
  A = -4.3%	B = -21%	C = .	D = 26%

Cc1ccc(N=Nc2ccc(O)c(P(=O)(c3ccccc3)c3ccccc3)c2)cc1
  A = 0.4%	B = 2%	C = -17	D = -1%

CCOC(=O)C1=C(N)c2ccccc2CC1C(C)C (stereo not given)
  A = 1.3%	B = 2%	C = 1	D = 2%

Cc1ccc(NC(=O)COC(=O)[C@H](C)N2C(=O)C3CC=CCC3C2=O)cc1S(=O)(=O)N(C)C (stereo not given in full)
  A = -5.1%	B = 0%	C = -3	D = 17%

CC(CCc1ccccc1)NC(=O)c1cccc([N+](=O)[O-])c1 (stereo not given)
  A = 8.0%	B = -4%	C = -8	D = 30%

Cc1ccc(OCCSc2ncnc3sc(C)c(C)c23)cc1C
  A = ?	B = 1%	C = -10	D = 7%

OCCNc1nc2ccccc2nc1NCCO
  A = -0.1%	B = -3%	C = 4	D = -14%

COc1ccc(OC)c(/C=N/NC(=O)Cn2ccnc2C)c1
  A = -3.4%	B = -1%	C = -6	D = ?

O=C(Nc1nnc(CCN2CCCCC2)s1)c1ccccc1Cl
  A = -0.3%	B = -10%	C = 2	D = 12%

O=C(CN1CCN(C(c2ccccc2)c2ccccc2)CC1)N1CCOCC1
  A = -1.2%	B = -3%	C = -5	D = 0%

O=S(=O)(NC1=NCCCCC1)c1ccc(Cl)cc1Cl
  A = 0.5%	B = .	C = .	D = 5%

CN1CCN(c2nc(Nc3ccc(O)cc3)nc3ccccc23)CC1
  A = 5.2%	B = -11%	C = 1	D = -11%

O=S(=O)(NCc1ccccc1)[C@@H]1CC2C=CC1C2 (stereo not given in full)
  A = 3.2%	B = .	C = .	D = -4%

CC(C)(C)OC(=O)N[C@@H](C(=O)OC(C)(C)C)c1ccc(Br)cc1
  A = 1.9%	B = .	C = .	D = 2%

O=C(O)c1ccc(-c2ccccc2)[nH]c1=O
  A = -2.1%	B = -4%	C = -2	D = 1%

The last 5 entries of the part before are carried over, then new ones follow.
Labels used below: A = Rango complex inh; B = miR-21 reporter; C = GLA inh pH 4.5; D = Rango dissoc inh
O=S(=O)(NC1=NCCCCC1)c1ccc(Cl)cc1Cl
  A = 0.5%	B = .	C = .	D = 5%

CN1CCN(c2nc(Nc3ccc(O)cc3)nc3ccccc23)CC1
  A = 5.2%	B = -11%	C = 1	D = -11%

O=S(=O)(NCc1ccccc1)[C@@H]1CC2C=CC1C2 (stereo not given in full)
  A = 3.2%	B = .	C = .	D = -4%

CC(C)(C)OC(=O)N[C@@H](C(=O)OC(C)(C)C)c1ccc(Br)cc1
  A = 1.9%	B = .	C = .	D = 2%

O=C(O)c1ccc(-c2ccccc2)[nH]c1=O
  A = -2.1%	B = -4%	C = -2	D = 1%

CCOc1ccc(NC(=S)N2CCCCCC2)cc1
  A = 0.5%	B = -29%	C = -9[21.1 µM]	D = 4%

CC(C)[C@@H](C(=O)NCc1ccco1)N1C(=O)N2CCc3c([nH]c4ccccc34)[C@@]2(C)C1=O
  A = ?	B = 8%	C = .	D = 16%

C/C(=N\NC(=O)c1ccccn1)c1ccc(Cl)cc1
  A = -0.5%	B = -36%	C = -1	D = 5%

Cc1noc(C)c1S(=O)(=O)NC1CCN(Cc2ccccc2)CC1
  A = -2.8%	B = 0%	C = -2	D = -8%

O=C(CSc1ncnc2ccccc12)NCCCO
  A = -0.2%	B = -4%	C = -3	D = 7%

Cc1ccc(-c2noc(-c3ccccc3C(=O)NCc3ccco3)n2)cc1
  A = -0.5%	B = -21%	C = -2	D = 20%

CCOC(=O)C1(CC2CCCCO2)CCN(S(=O)(=O)c2c(C)nn(C)c2C)CC1 (stereo not given)
  A = -3.2%	B = 1%	C = -9	D = -5%

CSc1ccc(/C=C(/NC(=O)c2ccc(C)cc2)C(=O)Nc2cccc(C)c2)cc1
  A = -0.9%	B = -3%	C = 2	D = 16%

CCOC(=O)C1(CC2CCCCO2)CCN(Cc2nccn2-c2cccc(C)c2)CC1 (stereo not given)
  A = ?	B = -1%	C = 2	D = -20%

CC(C)n1c2ccccc2c2nnc(SCC(=O)Nc3ccccc3C(=O)O)nc21
  A = 8.1%	B = -9%	C = 10	D = ?

4 of the compounds above, field by field.
compound: CC(C)[C@@H](C(=O)NCc1ccco1)N1C(=O)N2CCc3c([nH]c4ccccc34)[C@@]2(C)C1=O
  Rango complex inh = ?; miR-21 reporter = 8%; GLA inh pH 4.5 = .; Rango dissoc inh = 16%
compound: CCOC(=O)C1(CC2CCCCO2)CCN(S(=O)(=O)c2c(C)nn(C)c2C)CC1 (stereo not given)
  Rango complex inh = -3.2%; miR-21 reporter = 1%; GLA inh pH 4.5 = -9; Rango dissoc inh = -5%
compound: CSc1ccc(/C=C(/NC(=O)c2ccc(C)cc2)C(=O)Nc2cccc(C)c2)cc1
  Rango complex inh = -0.9%; miR-21 reporter = -3%; GLA inh pH 4.5 = 2; Rango dissoc inh = 16%
compound: CCOc1ccc(NC(=S)N2CCCCCC2)cc1
  Rango complex inh = 0.5%; miR-21 reporter = -29%; GLA inh pH 4.5 = -9[21.1 µM]; Rango dissoc inh = 4%

Following part
Labels used below: A = Rango complex inh; B = miR-21 reporter; C = GLA inh pH 4.5; D = Rango dissoc inh
O=C(c1ccc(NS(=O)(=O)c2ccc(Cl)cc2)cc1)N1CCOCC1
  A = -0.1%	B = -2%	C = .	D = ?

Cc1ccc(C(=O)CSc2nnc(COc3ccccc3)o2)cc1
  A = ?	B = 2%	C = -16	D = -17%

Cc1nnc(NC(=O)C2CC(=O)N(c3ccccc3)C2)s1 (stereo not given)
  A = -1.5%	B = 1%	C = .	D = 0%

CCOC(=O)c1[nH]c2ccc(OC)cc2c1NC(=O)CN1CCSCC1
  A = 3.9%	B = -15%	C = 6	D = 11%

CC(NC(=O)c1cccc2ccccc12)c1ccc2c(c1)CCCC2 (stereo not given)
  A = 1.2%	B = 13%	C = -8	D = 14%

COc1ccc2c(c1)OCC1=C2CCC2(C)C(=O)CC=C12 (stereo not given)
  A = .	B = -2%	C = -5	D = .

Cc1ccc2[nH]c(=O)c(COC(=O)c3cccs3)cc2c1
  A = 4.1%	B = -2%	C = 1	D = 12%

NC(=O)c1ccc(NC(=O)CCCNC(=O)c2ccc(Cl)cc2)cc1
  A = -0.9%	B = -8%	C = .	D = -7%

O=C(CSc1ccc(Cl)cc1)Nc1nnc(-c2cccc([N+](=O)[O-])c2)s1
  A = -0.4%	B = 1%	C = 0	D = -15%

COc1ccccc1CNC(=O)COc1ccc(C)nc1[N+](=O)[O-]
  A = ?	B = -24%	C = 3	D = -7%

CCOc1ccccc1NC(=O)NS(=O)(=O)c1ccc(C)cc1
  A = ?	B = -3%	C = 2	D = ?

Only part of the results is shown. The share of hits here may be higher or lower than overall.
